gsp ag: gsp mutant agonism | gsp mutant cells, cAMP HTRF, 30 min; control for the full effect not named in the record | Potency, µM (series often up to 76.9 µM), without a hit: at the top dose activation (cAMP increase), hits mostly activators | 0.13% of 340,000 active; active = well fitted activation curve with a large enough effect; inconclusive = small, poorly fitted or top-dose-only effect, or another doubt; inactive = no such curve, though single readings can be large or run the other way; cell line not stated here;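 further: phosphodiesterase inhibitor Ro 20-1724 added with compounds to block cAMP breakdown; potency means the concentration at half of the fitted maximal effect; nearly all actives have a fitted effect of over 60% in size; about a fifth of the inactives were tested at one dose only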
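Cells stably selected in G418 were plated at 2000/well, grown 16-24 hr, then given compounds in DMSO with the PDE inhibitor […] (300 uM solution added) for 30 min at 37C; cAMP was read by HTRF.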
CtBP-E1A blk: CtBP/E1A binding inhibition; AlphaScreen GST-E1A/His-CtBP binding, 1536-well; stronger effect = lower value; control for the full effect not named in the record; AID 651724; 0.49% of 340,000 active; activity change, % (test concentration not listed); in the data active means activity change below about -65%; inconclusive means about -30% to -65%; inactive means above about -30%; further: on the % scale 0 is the no-effect control and ±100 the full control effect; compound concentration not given in the record
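AlphaScreen with 125 nM GST-E1A and 125 nM His-CtBP (5X stocks) in Tris pH 8.0, 300 mM NaCl, BSA, Tween 20, TCEP. Compounds preincubated 2 h at 37 deg C, then glutathione donor/nickel acceptor beads added for 1 h at 37 deg C in dark.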
Six1-Eya2 inh: Six1/Eya2 interaction inhibition | AlphaScreen GST-Six1/His-Eya2 binding, biochemical; stronger effect = lower value; control for the full effect not named in the record | activity change, % (test concentration not listed) | 0.56% of 360,000 active | AID 651725; in the data active = activity change below about -65%; inconclusive = about -30% to -65%; inactive = above about -30%; further: on the % scale 0 is the no-effect control and ±100 the full control effect; compound concentration not given in the record
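AlphaScreen with GST-Six1 and His-Eya2 (5X mix: 250 nM and 500 nM), glutathione donor and nickel acceptor beads; buffer 50 mM Tris pH 8.0, 300 mM NaCl, 1 mM TCEP; 1 h at 37 C in the dark.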
gsp antag: antagonists of gsp mutant (McCune-Albright syndrome); 0.4% of 340,000 active; gsp-mutant cells, cAMP HTRF, 30 min; control for the full effect not named in the record; Potency, µM (highest dose often 76.9 µM), for inactives: at the highest dose activity change, negative = inhibition, hits mostly inhibitors; active = falling curve of any shape with a large fitted effect; inconclusive = falling curve, mostly with a smaller effect; inactive = flat or rising curve; cell line not stated here;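 further: intracellular cAMP measured with PDE inhibitor Ro 20-1724 present during compound exposure; potency means the concentration at half of the fitted maximal effect; on the % scale 0 is the no-effect control and ±100 the full control effect; nearly all actives have a fitted effect of over 65% in size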
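Cells in G418 medium, seeded 16-24 h, 37C; buffer exchange to DPBS + 1 mM CaCl2, 0.5 mM MgCl2, 0.05% BSA; cpds in DMSO + […] (300 uM stock), 30 min 37C; HTRF cAMP detection.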
D2 potentiator: positive allosteric modulators of human D2 dopamine receptor. P14416. DiscoveRx D2 beta-arrestin cells, luminescence, 90 min; 100% = 57 uM dopamine signal. potentiation, % (concentration not given with the values). 0.23% of 360,000 active. AID 624464; active = potentiation of 50% or more; inconclusive = 30% to 50%; inactive = 30% or less;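 further: compound concentration not given in the record; tested on top of an EC20 dose of dopamine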
Target sequence (P14416 whole entry, looked up): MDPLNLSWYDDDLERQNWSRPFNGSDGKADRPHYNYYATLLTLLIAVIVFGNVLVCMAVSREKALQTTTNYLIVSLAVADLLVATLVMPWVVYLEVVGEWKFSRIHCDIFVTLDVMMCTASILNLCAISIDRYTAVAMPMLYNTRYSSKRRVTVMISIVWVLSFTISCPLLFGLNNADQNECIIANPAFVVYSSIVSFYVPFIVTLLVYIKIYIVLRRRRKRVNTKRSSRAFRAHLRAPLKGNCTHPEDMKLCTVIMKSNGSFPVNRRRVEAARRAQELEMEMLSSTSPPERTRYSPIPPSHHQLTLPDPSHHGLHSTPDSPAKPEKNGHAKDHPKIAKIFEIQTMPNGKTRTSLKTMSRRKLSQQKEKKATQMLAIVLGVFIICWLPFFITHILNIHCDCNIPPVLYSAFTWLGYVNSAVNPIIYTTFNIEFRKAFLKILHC
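PathHunter beta-arrestin assay in DiscoveRx D2 cells. Compounds were added with an EC20 of dopamine (50 nM final) for 90 min at 37 deg C. Luminescence was read 1 h after detection reagent, with 57 uM dopamine as the EC100 control.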
D2 agonist: activates the human D2 dopamine receptor | DiscoveRx PathHunter D2 beta-arrestin, luminescence, 90 min; 100% = 57 uM dopamine signal | P14416 | 0.084% of 360,000 active | activation, % (no concentration beside the values); in the data active = activation above about 40%; inconclusive = about 15% to 40%; inactive = below about 15%; further: compound concentration not given in the record; the text of the record calls up to 30% inactive
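DiscoveRx PathHunter D2 beta-arrestin cells (2,100/well) attached overnight, then compound-stimulated 90 min at 37 C in HBSS/10 mM HEPES/0.1% Tween-20 buffer; beta-galactosidase complementation read by luminescence after 1 h at ambient temperature. Dopamine 57 uM final (EC100) as control.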
The depositor's hits bear a star; ? = inconclusive; nt = not tested or not shown; [ ] = another dose, or the depositor's remark.

Values in the order: gsp antag, CtBP-E1A blk, gsp ag, D2 potentiator, D2 agonist, Six1-Eya2 inh
CS(=O)(=O)N(CC(=O)N1CCCCCC1)c1cc(Cl)ccc1Cl
    -2.9%, 5.9, -10.2%, -2.0, -0.4, 1.5
O=C(NN1C(=O)CSC1=S)c1cccnc1
    0.3%, -2.4, -1.2%[15.4 µM], -10.8, -3.8, 4.6
N#CCCN1CCN(S(=O)(=O)c2ccc(S(=O)(=O)N3CCOCC3)cc2)CC1
    5.0%, -6.4, -16.3%, -4.5, -2.4, 5.9
O=C(CCn1nc(-c2ccc(Cl)cc2)c2ccccc2c1=O)Nc1cccnc1
    -5.7%, -0.4, ?, -7.0, 3.0, -8.0
OC(c1ccccc1)C1CN(Cc2ccccc2)CCC1(O)c1ccccc1 (stereo not drawn)
    -3.6%, -6.9, 35.6%, -33.8, -1.8, -4.8
COc1ccc(-c2nc(SCC(=O)N3CCOCC3)n[nH]2)cc1
    -2.7%, 1.8, -36.2%[inhibitor], -16.1, -7.2, -8.8
COc1ccc(C(CNC(=O)COc2cccc(C)c2)N2CCCC2)cc1 (stereo not drawn)
    1.3%, nt, -4.3%, -32.2, 0.3, 1.0
NS(=O)(=O)c1ccc(CCNC(=O)Cc2cccs2)cc1
    9.9%, nt, -40.9%[inhibitor], -4.5, 2.8, -3.2
CC(C)CCNC(=O)c1onc(CSc2ccc(Cl)cc2)c1C(=O)NCCC(C)C
    4.4%, 8.7, -2.6%, -13.3, -1.7, 18.6
CC(C)(C)c1cc(C(=O)NN)n(Cc2ccc(Cl)cc2Cl)n1
    -1.4%, 3.1, ?, -0.3, -3.5, -4.7
COC(=O)CCC(=O)Nc1cc(S(=O)(=O)Nc2ccc(Cl)cc2)ccc1N1CCOCC1
    -7.4%, -4.7, -11.4%, 12.3, -0.5, -2.8
Cc1ccc(-c2csc3ncnc(N4CCN(c5ccccc5O)CC4)c23)cc1
    -9.4%, 1.6, -45.1%[inhibitor], -5.8, -0.5, -1.3
COc1ccc(-n2nnnc2SCC(=O)N2CCCC2=O)cc1
    6.8%, -15.1, 5.0%, -4.2, -1.0, 4.5
O=c1nc(-c2ccccc2)c2cc(SC(F)F)ccc2[nH]1
    -0.3%, 1.6, 0.7%[15.4 µM], -10.3, 0.4, -23.0
Cc1ccc(C)c(N(CC(=O)Nc2cc(Cl)ccc2Oc2ccccc2)S(C)(=O)=O)c1
    -3.5%[15.4 µM], 1.9, -23.2%, -6.9, -3.8, -9.8
Cc1nnc(NC(=O)C2c3ccccc3Oc3ccccc32)s1
    0.8%, -0.4, 12.4%, -22.0, -1.8, 13.8
CCCC(C)NC(=O)c1ccc(F)cc1 (stereo not drawn)
    -5.1%, 0.4, 7.1%, -11.3, -2.3, 0.8
Cc1ccc(NC(=S)NNC(=O)c2ccc(N3CCOCC3)c([N+](=O)[O-])c2)cc1Cl
    -6.5%, -14.5, -6.3%, -27.4, -7.2, -17.6
COc1cccc2c1cc1c(=O)n(CC(=O)N3CCN(c4cccc(C)c4C)CC3)nc(C)n12
    0.3%, -3.4, -8.5%[15.4 µM], -6.7, -2.7, -7.6
O=C(Nc1cccc(O)c1)c1cc(-c2ccccc2Cl)on1
    -6.5%, -18.1, -38.1%[15.4 µM], -8.0, 2.1, 9.8
CN(C)c1ncnc2c1ncn2C1OC(CO)C(O)C1O (stereo not drawn)
    4.2%, -0.9, -1.1%, 17.6, 0.4, 8.2
COc1ccc(OCC(=O)N2CCN(c3nnc(-c4ccccc4)c4ccccc34)CC2)cc1
    39.8µM*, -5.6, 13.2%, -0.7, -2.6, ?
COc1ccc2[nH]c3c(c2c1)[C@@H]1CCN2C(=O)CCC[C@H](C3)[C@H]12
    5.4%, 0.9, nt, -32.6, -1.9, 0.6
CCCCn1c(CNC(=O)c2cccs2)nc2ccccc21
    -9.7%, -3.4, ?, -7.7, 1.2, -0.4
CCOC(=O)C1=C(C)N=c2s/c(=C\c3ccc(OCC(=O)O)cc3)c(=O)n2C1c1ccccc1OC (stereo not drawn)
    -30.2%, -3.5, -18.3%, -5.1, -5.8, 0.0
O=C(/C=C/c1ccc2c(c1)OCO2)NCCS(=O)(=O)N1CCN(c2ccc(F)cc2)CC1
    10.4%, -3.9, 3.8%, 19.4, 7.1, -12.1
O=C(NNS(=O)(=O)c1ccccc1[N+](=O)[O-])c1cccc([N+](=O)[O-])c1
    -23.5%, 5.6, -7.4%, -2.0, -6.3, 1.7
C/C(=N\NC(=S)NC(C)C)c1ccc2c(c1)OCCO2
    4.2%, 5.0, 1.3%, 7.2, -4.8, 0.0
CC(C)(C)c1nc2c(Br)cc(Br)cc2c(=O)o1
    -19.6%, 2.9, -24.6%[15.4 µM], -1.5, -1.8, -14.4
COC(=O)c1ccc2c(=O)n3c(nc2c1)SCC(c1ccccc1)=N3
    -3.5%, 1.6, ?, -7.1, -7.0, -1.8
Cc1ccc(SCC(=O)OC(C)C(=O)Nc2ccc(S(N)(=O)=O)cc2)cc1C (stereo not drawn)
    -9.3%, 2.8, 7.1%, -7.5, -3.0, -1.9
CN(C)C1=NCCN1CCC1CCCCC1
    9.3%, 1.9, nt, -6.6, -1.5, 8.7
CCOP(=O)(OCC)c1nc(/C=C/c2ccccc2)oc1NCc1ccc(OC)cc1
    1.1%, 30.2, 3.0%, -20.3, -3.8, 31.7
CCOC(=O)c1c(C)n(C)c2cc(Br)c(C(=O)OC)cc12
    3.9%, 9.8, 1.6%, -6.7, 1.0, 10.9
CCn1cc(CN2CCCC(C(=O)Nc3ccc(-c4cscn4)cc3)C2)cn1 (stereo not drawn)
    9.8%, 0.5, 1.2%, -25.9, -3.3, 0.9
C[C@H](CO)N1C[C@H](C)[C@@H](CN(C)S(=O)(=O)c2cn(C)cn2)OCc2cnnn2CCCC1=O
    nt, -2.4, -80.4%, 3.0, -1.7, 5.2
COc1ccc(N2C(=O)S[C@@H]3CS(=O)(=O)C[C@@H]32)cc1
    6.9%, 0.6, ?, -10.9, -0.5, 11.7
CC1CCN(C(=O)C2c3ccccc3C(=O)N3CCc4ccccc4C23)CC1 (stereo not drawn)
    -53.3%, -1.4, -18.6%, -3.8, -0.3, -1.0
O=C(CC1C(=O)NCCN1Cc1cccc(Oc2ccccc2)c1)NCc1cccnc1 (stereo not drawn)
    7.4%, 1.2, ?, 1.0, 4.9, ?
O=C(Cc1ccccc1)NCC(=O)Nc1cc(Cl)ccc1Cl
    13.0%, -3.4, 4.9%[15.4 µM], 2.1, -2.3, 0.7
CC(=O)C1C(c2ccc(F)cc2)C2C(C)=NN=C2CC1(C)O (stereo not drawn)
    ?, 0.5, 22.3%[15.4 µM], -3.3, -2.5, 11.0
CCOC(=O)Cc1nn[nH]n1
    13.2%, 5.6, -4.1%, -3.7, -1.8, -3.1
CSc1nc(N)nc2c1ncn2Cc1ccccc1
    7.8%, 8.0, -3.7%, -7.0, 0.2, -0.4
O=C1CCCCN1CCc1c[nH]c2ccccc12
    -2.7%, -3.2, -17.0%, -27.0, -3.2, -0.2
O=C(CCN1C(=O)C2CCCCC2C1=O)Nc1ccc(Br)cc1F (stereo not drawn)
    -5.7%, 12.2, -14.3%[15.4 µM], -23.9, -1.7, 77.8
O=C(c1ccccc1Nc1ccc(SC(F)F)cc1)N1CCCCCC1
    -12.1%, 12.2, 13.6%, -11.4, -2.3, -2.5
COc1ccc(C2c3c(ccc4ccccc34)Oc3ncn4nc(-c5ccco5)nc4c32)cc1 (stereo not drawn)
    12.6%, 7.5, 14.2%, -13.4, -4.1, -1.8
COc1ccc(C(=O)NC(NC(=O)c2ccc(OC)cc2)c2ccccc2F)cc1
    8.2%, -20.5, -2.2%[15.4 µM], -2.4, -1.9, 0.1
CN1CCN(CCc2nc3cc(NC(=O)c4ccco4)ccc3n2C)CC1
    -5.0%, 1.6, 9.5%[15.4 µM], -5.4, -3.4, 15.4
Cc1cc(SC(C)C(=O)O)nc2ccccc12 (stereo not drawn)
    8.5%, nt, ?, -1.3, -1.1, -0.8
COc1ccccc1CNS(=O)(=O)c1cc(CN2C(=O)c3cccnc3C2=O)ccc1OC
    1.0%, nt, ?, -3.5, -5.2, -5.6
Cc1ccc(NC(=S)N2CCOCC2)c(C)c1
    14.1%, 2.2, -17.4%, -4.5, -2.8, 2.1
CSc1ccc(CN(C)CC(=O)Nc2c(F)cccc2F)cc1
    2.2%, -7.7, 13.8%[15.4 µM], -19.3, 0.6, 1.0
CC(C)(C)NC(=O)NC(=O)CN1CCC(Cc2ccccc2)CC1
    5.3%, nt, 7.5%[15.4 µM], -10.5, -3.4, -1.3
O=C(c1ccccn1)N1CCCC(N2CCN(c3ccc(F)cc3)CC2)C1 (stereo not drawn)
    7.1%, 1.7, ?, -10.0, -0.8, 0.4
COc1ccccc1-[n+]1c(C)cc(/C=C2\Sc3ccccc3N2C)cc1C
    4.8%, nt, 26.8%, -36.4, -7.7, 11.4
N#Cc1ccc(C(c2nnnn2C2CCCC2)N2CCC(Cc3ccccc3)CC2)cc1 (stereo not drawn)
    2.5%, 13.2, ?, -9.8, -3.0, -1.6
CSc1ccc(/C=C(\C#N)C(=O)Nc2cccc(C)c2)cc1
    -2.0%, -0.4, -10.1%, -0.4, ?, 7.8
Cc1ccc(NC(=O)/C(=C/c2cccc([N+](=O)[O-])c2)NC(=O)C2CCCCC2)cc1
    -1.9%, 2.0, 3.8%, -11.9, -1.0, 1.1
COc1ccc(NC(=O)CSCC(=O)Nc2ccccc2N2CCCC2)cc1
    -8.5%, 0.7, 16.6%[15.4 µM], -13.4, -2.1, -2.4

(cont.)
Values in the order: gsp antag, CtBP-E1A blk, gsp ag, D2 potentiator, D2 agonist, Six1-Eya2 inh
COc1ccc(N=C2SC(C(=O)Nc3ccc(F)cc3)CC(=O)N2C)cc1 (stereo not drawn)
    -53.4%, -7.8, 22.5%[15.4 µM], 3.0, 2.4, 21.3
CCOC(=O)c1cc(-c2ccco2)nc2c1c(C)nn2-c1ccccc1
    1.7%, 6.6, -40.1%[inhibitor], 0.1, -7.1, 16.7
NC(=O)c1cn(-c2ccccc2)nc1-c1cccnc1
    15.1%, 4.6, -6.2%, -6.1, -3.8, -3.0
COc1ccc(CCNCC(O)COc2cccc(Br)c2)cc1OC (stereo not drawn)
    4.9%, -5.9, 0.4%[15.4 µM], -4.6, -2.5, -12.9
COC(=O)CC1=NN(c2ccc(OC)cc2)C(=O)/C1=C\c1ccc(Cl)cc1
    -9.3%, 1.8, -15.2%[15.4 µM], -8.8, -2.7, -4.8
COC(=O)c1c(-c2ccccc2OC)sc2ccc(OC)cc12
    -15.4%, 12.6, 29.5%, -8.6, -0.4, 5.3

Bioassay records: PubChem, National Center for Advancing Translational Sciences (NCATS)
